Bioassay records: PubChem BioAssay, several laboratories
CSC inhib = cancer stem cell viability inhibitors, primary screen, luminescence; cancer stem cell-like cells viability; hit rate 1.1% among 300,000; inhibition, % at 7.5 µM;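 active = mean at 75% or more and at least half the replicates too; inconclusive = mean and replicates disagree; tested in HMLE shEcad cells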;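 note: 0% = median of negative and 100% = median of positive control wells; the first replicate is given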
Rce1 inh = yeast Rce1p protease inhibitors, primary screen, biochemical, fluorescence, cell-free homogeneous; CAAX prenyl protease 2 (Saccharomyces cerevisiae (strain ATCC 204508 / S288c)), Q03530; yeast membranes, quenched prenylated peptide cleavage fluorescence; calls only; hit rate 0.27% among 290,000;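 active = fall in fluorescence gain of 50% or more versus controls, with final raw signal at or below 3038400; inconclusive = same 50% fall but final raw signal above 3038400; inactive = fall in fluorescence gain under 50%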;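 note: plate controls were neutral control wells for no effect and wells lacking membranes for full effect; tested at 10 µM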
Target sequence (Q03530 whole entry, looked up): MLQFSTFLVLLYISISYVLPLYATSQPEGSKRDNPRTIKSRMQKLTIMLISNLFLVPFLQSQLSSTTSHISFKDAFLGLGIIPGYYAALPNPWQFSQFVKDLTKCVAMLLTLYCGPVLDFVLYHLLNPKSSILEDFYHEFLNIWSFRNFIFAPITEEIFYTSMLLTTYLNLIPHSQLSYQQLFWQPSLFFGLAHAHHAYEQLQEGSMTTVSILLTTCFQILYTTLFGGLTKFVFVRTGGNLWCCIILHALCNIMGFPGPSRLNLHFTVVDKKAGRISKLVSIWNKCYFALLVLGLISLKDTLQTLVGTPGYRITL
eIF4H inh = human eIF4H binding inhibitors, primary screen, translation initiation inhibitor project, biochemical, uHTS, fluorescence polarization; Eukaryotic translation initiation factor 4H (Homo sapiens), Q15056; eIF4H fluorescence polarization binding assay; inhibition, % at 35 µM; hit rate 0.94% among 290,000;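 active = 50% or more with normal probe brightness, or confirmed in later tests; inconclusive = above 50% with abnormal brightness, or retests that disagree; inactive = below 50% or failed in later tests; about a fifth of its hits are not listed in these tables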;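 note: calls also rest on retests at 20 µM and on dose response follow-up; 0% = protein and probe with vehicle and 100% = probe without protein; strong numbers were not always called active; many hits fall short of the cut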
HIV Env fusion = inhibitors of HIV-1 Env-driven cell-cell fusion, primary screen, HeLa-JRFL effector, CEM21 target cells, luciferase; hit rate 1.1% among 360,000; inhibition, % at 12.3 µM; AID 651610, 2012;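 active = mean replicate inhibition score of at least 50 and every replicate individually at or above 50; inconclusive = only one of the two criteria met; inactive = mean below 50 and not all replicates reaching 50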;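 note: 0% = plate neutral controls and 100% = maraviroc near 300 nM; one replicate is shown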
PABP polyA inh = PABP poly(A) RNA binding inhibitors, primary screen, biochemical, fluorescence polarization, uHTS; hit rate 1% among 290,000; inhibition, % at 35 µM; Polyadenylate-binding protein 1 (Homo sapiens), P11940;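 active = 50% or more with normal probe brightness, or confirmed in later tests; inconclusive = above 50% with abnormal brightness, or retests that disagree; inactive = below 50% or failed in later tests; about a fifth of its hits are not listed in these tables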;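 note: calls also rest on retests at 20 µM and on dose response follow-up; controls were probe without protein and protein plus probe with vehicle; some compounds called inactive have numbers as strong as hits; many hits fall short of the cut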
UUG fidelity = modulators of yeast start codon fidelity, primary screen, whole organism, S. cerevisiae, single point, plate reader. S. cerevisiae UUG-firefly luciferase reporter, luminescence/redox ratio. activity score, % at 18.7 µM. hit rate 0.13% among 350,000. AID 602363, 2012;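 active = replicate mean at a twofold rise or more, about +100% in these data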;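 note: firefly luciferase made from a UUG start codon reports start codon fidelity; reporter light over untreated wells divided by growth signal over untreated wells; some hits fall short of that in this replicate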
MT1-MMP act inh = blockers of MT1-MMP proenzyme processing, primary screen, HT1080 RFP-PRO-GFP cells, GFP/RFP fluorescence. GFP/RFP ratio fluorescence, overnight; percent of plate control window, DMSO zero. GFP/RFP ratio change, % at 20 µM. hit rate 0.061% among 360,000. AID 651647, 2012;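 active = GFP/RFP ratio change of at least 30% with cell ATP level not reduced by more than half and red fluorescence within 50% of control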; note: strong numbers were not always called active
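Assay system: HT1080 cells carrying an RFP-PRO-GFP reporter | Dosing: Single dose of 20 µM compound, 1% DMSO final | Incubation: Cells overnight before dosing, compound overnight, 37 °C, 5% CO2 | Evaluation: GFP/RFP fluorescence ratio | Control set: DMSO and RFP-L50D-GFP cell wells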
eIF4H inh retest = further read-out of eIF4H inh, marked with its call; inhibition, %; compound at 20 µM; confirmation average;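 mean of two retest wells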
PABP polyA inh retest = recorded beside PABP polyA inh, whose call it bears; inhibition, %; compound at 20 µM; confirmation repeats;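 mean of two retest wells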
MT1-MMP act inh RFP = recorded beside MT1-MMP act inh, whose call it bears; RFP signal change, %; measured here: RFP expression control read;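 0 = vehicle wells; hits needed this value within 50% of zero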
Active calls of the source: *; i = inactive; ? = inconclusive; · = no result given. A portion of the library; the hit share may differ from the screen's.

SMILES	CSC inhib	Rce1 inh	eIF4H inh	HIV Env fusion	PABP polyA inh	UUG fidelity	MT1-MMP act inh	MT1-MMP act inh RFP	others
C#CCOCCOCCOCCNc1nc(N2CCN(C(=O)[C@H](C(C)C)n3cc(CCO)nn3)CC2)nc(N2CCN(C(=O)[C@H](CCCCN)n3cc(CCCC)nn3)CC2)n1	7	i	14	4	31	18	-1	-1
Cc1nc(N2CCN(c3ccccc3)CC2)[nH]c(=O)c1CCC(C)C	-4	i	2	-10	11	-10	-3	-3
Cc1coc2c(C)c3oc(=O)c(CCC(=O)NCCN4CCOCC4)c(C)c3cc12	-9	i	0	·	9	-8	1	-1
CCOC(=O)c1sc2nc(C)cc(-c3ccccc3)c2c1N	-5	i	-8	-6	-6	·	0	-1
O=C(N/N=C/c1cccnc1)c1cccc(S(=O)(=O)N2CCCC2)c1	-2	i	2	-8	6	·	4	4
COc1cccc(-n2nnnc2SCC(=O)Nc2cccc(C)n2)c1	-5	i	-9	·	6	20	6	2
CCN(CC)C(=O)C1=C(C)N(Cc2ccc(F)cc2)C(=O)C(CC(=O)NC2CCCCC2)C1 (stereo not given)	·	·	·	-8	·	-12	0	1
Cc1nc(N)sc1-c1nnc(SCC(=O)Nc2ccccc2C(F)(F)F)n1C	-5	i	1	-41	-2	-5	13	2
O=S(=O)(c1ccc(Cl)cc1)N1CCN=C1SCc1cccc(Cl)c1	-8	i	8	15	4	·	-2	-1
Cc1ccc(O)c(NC(=O)COc2cc(C)ccc2C)c1	1	i	-6	-58	0	-27	-4	-4
CCOC(=O)c1cc2sc(C)cc2n1CC(=O)N1CCOCC1	-10	i	-4	·	4	0	3	3
Cc1noc(C)c1C(=O)N1CCC1(C)C(=O)NS(=O)(=O)c1ccc(Cl)cc1 (stereo not given)	·	·	·	-5	·	12	2	6
CCOC(=O)/C=C/C(=O)OCC(=O)Nc1ccc(Cl)cn1	8	·	-9	·	2	-11	-4	4
CCc1ccc(NC(=O)CSc2nnc(CNC(=O)c3ccco3)o2)cc1	-8	i	-2	-1	4	-7	1	2
Nc1cccc2c1C(=O)N(C(=O)c1cccc(S(=O)(=O)N3CCCC3)c1)C2=O	4	i	6	-12	18	13	-1	-5
CCOc1ccc(/C=C/c2nc(C#N)c(NCCCN(C)C)o2)cc1	44	i	-5	1	11	-9	-2	0
CCc1ccc(NC(=O)c2cnc3scc(C)n3c2=O)cc1	1	i	7	-24	-9	-13	2	-1
COc1ccc(/C=C/C(=O)NCCSCc2ccco2)cc1	-13	i	17	-23	-3	·	0	2
CCCCN(C)CCCNC(=O)Cn1c(=O)sc2ccccc21	4	i	2	-13	-11	-15	1	5
O=C(c1cccn2c(=O)c3ccc(Cl)cc3nc12)N1CCN(Cc2ccc3c(c2)OCO3)CC1	-7	i	1	·	-5	-8	-5	-5
Cc1cc(C)c2c(N=NN3CCOCC3)[nH]nc2n1	-13	i	10	23	-5	·	3	4
Cc1ccc(S(=O)(=O)N/N=C/c2c(F)cccc2Cl)cc1	-14	i	4	-15	-10	·	-2	0
O=C(Cc1cc(=O)[nH][nH]1)N/N=C/c1cccc2ccccc12	-8	i	81	-1	-14	·	6	3	eIF4H inh retest=0;PABP polyA inh retest=5
C=CCc1cccc2cc(C(=O)NC)c(=O)oc12	-11	i	4	·	-2	-13	6	3
CCC1CCCCN1C(=O)C1CC(c2cc(Cl)c(OC)cc2OC)=NO1 (stereo not given)	·	i	2	-17	10	0	8	1
CCN(C(=O)Cc1nc(N)n[nH]1)C1(C(=O)Nc2ccccc2)CCCCC1	-6	i	26	20	-6	·	4	2
C=CCc1ccc(OCC(O)CN2CCN(Cc3ccccc3)CC2)c(OC)c1 (stereo not given)	22	·	-3	21	4	-8	2	3
C=CC[C@H](CC(=O)NCCO)C(=O)N[C@H](COC(=O)[C@@H](CC=C)Cc1ccc(F)cc1)c1ccccc1	20	·	·	43	·	-15	0	0
O=C(NNC(=O)c1cccc(-n2cnnn2)c1)c1ccccc1	-1	i	-3	14	11	·	3	5
CC(NS(=O)(=O)c1cccc(Cl)c1F)[C@H](O)c1ccccc1 (stereo not given in full)	·	·	·	2	·	10	4	8
O=S(=O)(c1ccccc1C(F)(F)F)N1CCOCC1	-7	i	-7	·	-7	-23	5	8
COc1ccc(N(C)S(=O)(=O)c2cccc(C(=O)OCC(=O)Nc3cc(C)ccc3OC)c2)cc1	·	·	·	-21	·	-3	-2	-4
Cc1ccc(-c2csc3ncnc(Oc4ccc5c(C)cc(=O)oc5c4)c23)cc1	26	i	-4	26	34	·	-15	-11
CC(/C=C/c1ccco1)=N\NC(=O)c1cccnc1	·	·	30	-21	34	·	2	8
CC(=O)c1cccc(NC(=O)NCCc2ccc(Cl)cc2)c1	-11	i	-10	·	-4	-16	-5	-5
O=C(Nc1ccc(Cl)cc1)N(Cc1nc2ccccc2c(=O)[nH]1)Cc1cccs1	-8	i	2	-180	-2	3	-5	-10

In the list so far, these contain two or more sulfur atoms.
SMILES	CSC inhib	Rce1 inh	eIF4H inh	HIV Env fusion	PABP polyA inh	UUG fidelity	MT1-MMP act inh	MT1-MMP act inh RFP	others
Cc1nc(N)sc1-c1nnc(SCC(=O)Nc2ccccc2C(F)(F)F)n1C	-5	i	1	-41	-2	-5	13	2
O=S(=O)(c1ccc(Cl)cc1)N1CCN=C1SCc1cccc(Cl)c1	-8	i	8	15	4	·	-2	-1

Going on with the list:
SMILES	CSC inhib	Rce1 inh	eIF4H inh	HIV Env fusion	PABP polyA inh	UUG fidelity	MT1-MMP act inh	MT1-MMP act inh RFP	others
CCOc1ccc(NC(=O)C(C)N2C(=O)c3ccccc3S2(=O)=O)cc1 (stereo not given)	-2	i	·	14	·	-10	-3	-2
Cc1ccc2cc(/C=C(\C#N)C(N)=O)c(N3CCCCC3)nc2c1	14	i	-6	12	10	·	-14	-8
CCc1ccc(N2CC(C(=O)N/N=C/c3cc([N+](=O)[O-])ccc3O)CC2=O)cc1 (stereo not given)	-4	i	7	7	-2	-15	-4	-7
FC(F)(F)c1ccccc1NC(=S)NC1CCN(Cc2ccccc2)CC1	9	i	4	-8	6	·	0	2
CN(Cc1ccccc1)CC(O)COc1ccc(CNCCc2ccncc2)cc1 (stereo not given)	10	i	-4	14	14	·	6	2
COc1ccc(C(NC(=O)CNC(C)=O)C(=O)Nc2ccc(C(C)C)cc2)cc1 (stereo not given)	·	i	-7	10	1	·	4	4
CC1Cc2ccccc2N1S(=O)(=O)c1cnc(Cl)c(Cl)c1 (stereo not given)	0	i	6	0	12	·	-1	0
CN(C)CCN(C(=O)/C=C/c1cccs1)c1nc2ccc(Br)cc2s1	20	i	·	6	·	-6	2	0
O=C(O)CSCC(=O)Nc1ccc(C(=O)O)cc1	0	i	6	1	0	-18	-1	2
CCOC(=O)C1CCC(CN(Cc2ccccc2C)S(=O)(=O)c2ccc([N+](=O)[O-])cc2)CC1 (stereo not given)	1	i	-3	-7	5	·	-12	-14
O=c1[nH]c(=S)[nH]c2sc3c(c12)CCCCCC3	4	i	-5	-3	-12	-10	-1	2
COc1cccc(S(=O)(=O)NCc2ccc(C(=O)N3CCN(C)CC3)cc2)c1	·	i	-6	19	-2	-5	-2	-2
CCOC(=O)c1sc2nc(C)nc(Nc3ccc(OC)c(OC)c3)c2c1C	7	i	-4	21	14	·	4	-2
CC(C)CC(=O)Nc1nnn(C)n1	1	i	-5	-17	-9	-14	-4	5
COc1cc(OC)c(NS(=O)(=O)c2cc3[nH]c(=O)c(=O)[nH]c3cc2C)cc1Cl	-7	i	-1	2	-3	-7	3	3
COc1ccccc1N/C(N)=N/c1nc(CSc2ccc(C)cc2)cc(=O)[nH]1	-6	i	-1	67*	-1	-9	-9	-13
CCOc1ccc(N=Nc2c(=O)[nH]n3c(=O)cc(C)[nH]c23)cc1	-6	i	-2	·	-2	0	26	5
CC(C)(C)c1nc2c(Br)cc(Br)cc2c(=O)o1	13	i	-3	-30	-17	-11	2	4
CCOc1ccc2c(c1)c1nc3ccccc3nc1n2C	0	i	17	-8	?	-13	-2	3
CCC(C)NC(=O)c1nc2c(nnn2Cc2ccccc2Cl)c(=O)[nH]1 (stereo not given)	16	·	0	3	5	·	-3	-2
CCCNC(=O)c1c[nH]c2ccc(S(=O)(=O)N(C)c3ccc(OCC)cc3)cc2c1=O	14	i	-9	·	3	·	·	·
CSc1ccccc1-c1n[nH]c(=S)o1	·	i	-2	7	-7	·	5	1
CCCN(CCC)CCCNC(=O)CC1Nc2ccccc2NC1=O (stereo not given)	0	i	0	·	-6	-7	-2	1
Cc1ccc(CSCC(=O)N2CCN(Cc3ccc4c(c3)OCO4)CC2)cc1	·	i	-9	·	4	-4	-4	-1
CN1CCN(c2nc(-c3ccccc3)ncc2S(=O)(=O)c2ccccc2)CC1	-9	i	-2	15	-13	·	-2	0
O=C(CN1C(=O)C2CC=CCC2C1=O)OCC(=O)c1ccc(Cl)c([N+](=O)[O-])c1 (stereo not given)	-17	i	-5	2	0	14	-3	2
CCC(=O)Nc1ccccc1Sc1ncnc2scc(-c3ccccc3)c12	-9	i	-6	18	-4	-8	-2	-1
CC(=O)NC1=NN(C(C)=O)C(c2cccs2)S1 (stereo not given)	-4	i	1	i	10	-13	3	0
CCOc1ccc(CNC(=O)C2CCCN(S(=O)(=O)N3CC(C)CC(C)C3)C2)cc1OC (stereo not given)	13	i	-13	30	2	0	1	0
O=C(Nc1ccccn1)c1ccccc1	·	·	·	-20	·	1	-3	0
Cn1nnc2cc(C(=O)NCCC3=CCCCC3)ccc21	1	i	-1	-91	-10	-26	-1	-4
CCc1cccc2c(C#N)cn(CC(=O)NCCOC)c12	·	i	-11	-51	-4	·	2	3
Cc1ccc(C(=O)Nc2nc(=O)n(C(=O)c3ccccc3Cl)s2)cc1	·	i	2	·	7	-7	6	2
CC(C)CC(=O)N(c1ccc(F)cc1)C1C=CS(=O)(=O)C1 (stereo not given)	-15	i	-8	·	6	0	0	3
CCCC(=O)Nc1nnc(CC(=O)N2CCCC2)s1	5	i	1	-80	-16	-10	-10	-8
Cc1cccc2c(=O)cc(C)n(CC(=O)N3CCCCC3)c12	4	·	-6	-51	5	-8	1	8
O=C(CN1C(=O)C2C3CC(C(Br)C3Br)C2C1=O)OCC(=O)c1cccc([N+](=O)[O-])c1 (stereo not given)	-7	i	0	-2	-1	-13	3	6
Cc1cc(NC(=O)CN2C(=O)NC3(CCCCCC3)C2=O)no1	0	i	-2	-1	4	-18	6	6
O=[N+]([O-])c1ccc(Nc2nc(Cl)nc(NCCO)n2)cc1	-10	i	?	7	?	·	-3	0
O=C(Nc1ccc2c(c1)OCCO2)C(CCc1ccccc1)N1CCC(Cc2ccccc2)CC1 (stereo not given)	·	·	·	-28	·	1	-1	-4
COc1cc(/C=N/NC(=O)c2cc(C3CC3)[nH]n2)ccc1O	1	i	6	-29	6	-7	2	2
